HPGD inh: HPGD (human) dehydrogenase inhibition | Potency, µM, for the others: at the top dose activity change, negative = inhibition, most hits filed as inhibitors | AID 894 | P15428 | 150,000 tested, 4.3% active | purified HPGD, NADH fluorescence kinetic, PGE2 substrate; active = well fitted inhibition curve with a large enough effect (not every such curve was filed as active); inconclusive = small, poorly fitted or top-dose-only effect, or another doubt; inactive = no such curve, though single readings can be large or run the other way;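 further: top concentration of the series not given in the record; plate controls included wells without enzyme; inactives centre near -10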
Target sequence (P15428 whole entry, looked up): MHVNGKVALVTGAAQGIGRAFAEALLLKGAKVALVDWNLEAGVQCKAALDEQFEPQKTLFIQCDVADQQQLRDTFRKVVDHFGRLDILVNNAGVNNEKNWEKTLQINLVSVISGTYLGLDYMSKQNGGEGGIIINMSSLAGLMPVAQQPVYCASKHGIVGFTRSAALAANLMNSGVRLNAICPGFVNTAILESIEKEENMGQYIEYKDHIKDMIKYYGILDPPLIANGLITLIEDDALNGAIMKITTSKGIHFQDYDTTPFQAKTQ
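NADH formation kinetics: reaction with 30 uM PGE2 and 1 mM NAD+ (final), 20 nM enzyme, Tris-HCl pH 8 with Tween 20, after 15 min compound preincubation at room temperature. Fluorescence change, last versus first of five reads.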
* hit, by the source's call; ? = inconclusive; & = joins results of further samples. On the % scale 0 is the no-effect control and ±100 the full control effect; potency means the concentration at half of the fitted maximal effect. This is a subset (hit frequency here may not be typical).

SMILES	HPGD inh
CCOc1cc(N2CCOCC2)c(OCC)cc1NC(=O)COC(=O)c1cc(C)oc1C	-4.7%
COc1ccccc1NC(=O)CSc1nnc(Cn2nnc(-c3ccccc3)n2)n1-c1ccccc1	-23.2%
CCOC(=O)CCCNC(=O)N1CCc2nc(-c3ccccc3)c3c(c2C1)CO[C@@H](C)C3	-1.4%
Clc1ccc(Cl)c(OCCCCNCc2ccccc2)c1	3.3%
CC(=O)c1cccc(NC(=S)NC(=O)c2cccc(Cl)c2)c1	?
COc1ccc(CCN2C(=O)C3CC=C(C)CC3C2=O)cc1OC (configuration not stated)	4.2%
O=C(Nc1cccnc1)c1noc2c1CCCCC2	-14.3%
COc1ccc(C(C(=O)NC2CCCCC2)N(C(=O)CCl)c2ccccc2Cl)cc1 (configuration not stated)	-5.0%
COC(=O)C(O)(CC(=O)Nc1ccc(Cl)cc1F)C(F)(F)F (configuration not stated)	-0.2%
CC(C)Oc1cccc(C(=O)Nc2ccc(CN3CCOCC3)cc2)c1	-7.4%
CN(C)c1ccc(/C=N\NC(=O)c2ccc(Cn3cc(Cl)cn3)cc2)cc1	-0.3%
CCCCC[C@H](O)/C=C/[C@@H]1[C@H](C/C=C\CCCC(=O)O)[C@@H](O)C[C@H]1O	-8.3%
CC(c1ccccc1)n1cnc2ccccc21 (configuration not stated)	?
Cn1c(=O)oc2cc(S(=O)(=O)N3CCCC(C(=O)NCc4ccc5c(c4)OCO5)C3)ccc21 (configuration not stated)	1.1%
N[C@@H](CCCC(=O)O)C(=O)O	-15.5%
COCCn1nnnc1SCC(=O)c1ccccc1	-9.5%
O=C(CN1CCC(Cc2ccccc2)CC1)NC(=O)NCc1ccccc1	0.2%
COc1ccccc1N1CCN(C(=O)c2cc3c(-c4ccc(Cl)cc4)nn(C)c3s2)CC1	-23.8%
Clc1cccc(Cl)c1CSc1nnc2ccccn12	-4.2%
CCOc1ccc(S(=O)(=O)Nc2ccc3c(c2)c2c(n3S(=O)(=O)c3ccc(OCC)cc3)CCCC2=O)cc1	-7.1%
Cc1cnc(NC(=O)CSc2nnc(COc3c(C)cccc3C)o2)s1	-6.7%
Cc1cc(C)c(S(=O)(=O)c2ccccc2C)c(SCC(C)C)n1	-14.6%
CS(=O)(=O)N1CCC2(CC1)CN(c1ccccn1)C2	?
O=C(c1csnn1)N1CCC2(CCCN(c3ncccn3)C2)CC1	-12.4%
CCC(=O)Nc1ccnc(-c2cccnc2)n1	-13.2%
SMILES	HPGD inh
O=C(Nc1ccc2c(c1)OCCO2)c1cccnc1	-5.4%
Cc1ccc(/C=N/NC(=O)CC(=O)NCc2cccnc2)cc1	-1.2%
COc1ccccc1C(=O)Nc1ccccc1N1CCOCC1	-3.6%
COc1ccccc1N1CCN(C(=O)CCc2ccc(S(=O)(=O)NC(C)C)cc2)CC1	3.6%
CC(C)OC(=O)c1ccc(OC(=O)c2cccnc2)cc1	-18.1%
COc1cccc(C(C(=O)NC2CCCCC2)N(C(=O)c2ccco2)c2ccc(-n3cnnn3)c(C)c2)c1 (configuration not stated)	-16.5%
N#CC1=C(N)C(C#N)(C#N)[C@H](c2ccncc2)[C@H]2CN(C(=O)OCc3ccccc3)CC=C12	-25.0%
CCOC(=O)COc1ccc(S(=O)(=O)Nc2ccc(C)cc2)cc1	-13.4%
CCCOC(=O)c1cc(-c2ccc(C=O)o2)ccc1Cl	-21.3%
COc1cc(C(C)=O)ccc1COc1ccc(C(=O)OCC(N)=O)cc1OC	-19.9%
CCc1c(C)nc2cc(-c3cc(OC)cc(OC)c3)nn2c1N1CCCC1	-28.6%
O=C1NN(c2ccc(F)c(Cl)c2)C(=O)/C1=C\c1cccc(OC(=O)c2cccs2)c1	10µM*
CC(=O)Nc1ccc(Nc2cc(C)nc3c(-c4ccccc4)c(C)nn23)cc1	-15.4%
O=C(NC(NC(=S)Nc1c(Cl)cc(Cl)cc1Cl)C(Cl)(Cl)Cl)OCc1ccccc1 (configuration not stated)	-7.7%
CCC(C)[C@H](NC(=O)NCc1ccc(Cl)cc1)C(=O)OC (some centres not stated)	-10.6%
N#C/C(=C\c1ccc(Cl)cc1)c1nc2ccccc2o1	1.1%
CC(C(=O)Nc1ccc2c(c1)OCO2)N(c1ccc(Cl)cc1)S(C)(=O)=O (configuration not stated)	-10.2%
Cn1c(/C=N/NC(=O)c2ccccc2)nc2ccccc21	?
CN1C[C@@H]2C(c3ccccc3)C3(c4ccc(C#N)cc4)CC2(C3)[C@H]1c1ccccc1 (some centres not stated)	-3.6%
COc1ccccc1NC(=O)COc1ccccc1C(=O)c1cnn(-c2ccccc2)c1	-25.7%
CCOC(=O)CN1C(=O)c2ccccc2C1=O	-7.3%
O=C(O)CN(c1ccccn1)S(=O)(=O)c1ccccc1	?
CC(NCc1ccc2c(c1)OCO2)C(=O)NC1CCCc2ccccc21 (configuration not stated)	-1.9%
CCCC(OC(=O)CC1Sc2ccccc2NC1=O)C(=O)NCc1ccco1 (configuration not stated)	-19.4%
COc1ccc(NC(=O)N2CCCCC2)cc1	-12.6%

3 compounds out of the list above, ordered by the number in HPGD inh, descending.
SMILES	HPGD inh
CCOC(=O)CN1C(=O)c2ccccc2C1=O	-7.3%
CCOC(=O)COc1ccc(S(=O)(=O)Nc2ccc(C)cc2)cc1	-13.4%
COc1ccccc1NC(=O)COc1ccccc1C(=O)c1cnn(-c2ccccc2)c1	-25.7%

2 entries from above, with bars between the fields.
Molecule | HPGD inh
N#C/C(=C\c1ccc(Cl)cc1)c1nc2ccccc2o1 | 1.1%
CC(C(=O)Nc1ccc2c(c1)OCO2)N(c1ccc(Cl)cc1)S(C)(=O)=O (configuration not stated) | -10.2%

(further entries)
SMILES	HPGD inh
CN(C)Cc1ccccc1-c1nccc(N(C)C)n1	?
N#Cc1ccc(-c2cccnc2)nc1SCC(=O)Nc1sc2c(c1C#N)CCC2	-4.5%
Cc1cccc(NC(=O)C2(c3cccs3)CCOCC2)c1	-9.8%
Cc1cc(-c2ccccc2)n2nc(C)c(C#N)c2n1	?
COc1cc2nc(SCc3c(C)noc3C)n(CCC3=CCCCC3)c(=O)c2cc1OC	-17.4%
O=C(O)CC1(CC(=O)O)Nc2ccccc2SC1=O	-1.0%
Cc1cc(=O)n2[nH]c(=O)c(N=Nc3ccccc3)c2[nH]1	?
CCOC(=O)Cn1c(=O)oc2cc(S(=O)(=O)N(CCN(C)C)Cc3ccccc3)ccc21	-2.8%
c1ccc(COc2ccc(OCCN3CCCC3)cc2)cc1	-7.2%
CCCCC(=O)Nc1ccccc1C#N	-12.3%
Cc1cc(C)c(S(=O)(=O)NCCCn2ccnc2)c(C)c1	-7.7%
CC(C)N(C(=O)CSc1nnc(Cn2nnc3ccccc32)n1C)C(C)C	1.1%
CN(CC(=O)N1CCN(c2ccccn2)CC1)S(=O)(=O)c1cccc2nsnc12	-6.8%
CN(c1ccccc1C(=O)N1CCN(c2ccccc2)CC1)S(C)(=O)=O	-6.5%
Cc1ccc(S(=O)(=O)N2CCOCC2)c(C)c1NS(C)(=O)=O	2.2%
Cc1c(NC(=O)c2ccc(Cl)c(S(=O)(=O)N3CCOCC3)c2)c(=O)n(-c2ccccc2)n1C	0.1%
CCOC(=O)CNS(=O)(=O)c1c(C)noc1C	-5.6%
COc1ccc(C2C=C(c3cccs3)Nc3nc(CCCO)nn32)cc1 (configuration not stated)	?
COC1=NS(=O)(=O)c2ccccc21	-5.9%
[O-]/[N+](=C\c1ccncc1)c1ccc(Br)cc1	?
N#Cc1c(NC(=O)c2ccc(Cn3cc(Br)cn3)o2)sc2c1CCCCC2	-23.7%
COc1cc(Nc2cc(C)nc3ncnn23)cc(OC)c1OC	-3.8%
CN=c1nc(-c2ccccc2)n(-c2ccccc2)s1	-26.1%
Nn1c(SCC(=O)Nc2ccc3c(c2)OCCO3)nnc1C(F)(F)F	-10.7%
O=C(CN1CCCCC1)Nc1ccc(S(=O)(=O)N2CCCCCC2)cc1	-1.3%
SMILES	HPGD inh
COc1ccc(NC2=CC(c3ccc(OC)c(OC)c3)N(c3ccc(OC)cc3)C2=O)cc1 (configuration not stated)	?
COc1ccc(/C=C/C(=O)Nc2nc(N)n(-c3ccccc3)n2)cc1	-15.7%
Cc1c(C(=O)OC2CCCC2)[nH]c2c1C(=O)CC(c1ccco1)C2 (configuration not stated)	-8.3%
COc1cc(CC(=O)OCC(=O)Nc2cccc([N+](=O)[O-])c2)cc(OC)c1OC	-6.2%
Cc1ccc(C(=O)Cn2c(C)cc(C)c(C#N)c2=O)cc1	-15.0%
O=C(Nc1ccc(N2CCCC2)cc1)C(Cl)c1ccccc1 (configuration not stated)	-14.7%
CN(C)Cc1ccccc1-c1nc(N(C)Cc2ccco2)c2ccccc2n1	-13.2%
CN(C)S(=O)(=O)c1ccc(C(=O)OCn2nnc3ccccc3c2=O)cc1	-4.7%
CCCCCCCCC#CCC#CCC#CCCCC(=O)O	-16.4%
Cn1c(CO)cnc1S(=O)(=O)Cc1ccc([N+](=O)[O-])cc1	-10.3%
C=CCNC(=O)COc1ccc(S(=O)(=O)NC2CCCCC2)cc1	-9.8%
CCCCOC(=O)c1ccc(NC(=S)NC(=O)c2c(Br)c(C)nn2C)cc1	-26.9%
Cc1ccc(-n2ncc3c(SCc4ccccc4)ncnc32)cc1	?
O=C(Nc1ncn[nH]1)c1ccc([N+](=O)[O-])cc1[N+](=O)[O-]	-2.7%
COc1cc(OC)c(OC)cc1/C=N/NC(=S)NCC1CCCO1 (configuration not stated)	?
CCn1c(SCC(=O)Nc2cc(NC(C)=O)ccc2OC)nnc1-c1cccnc1	-12.1%
NC(CSS(=O)(=O)O)=N[C@@H]1C[C@H]2CC[C@@H]1C2	-7.6%
CNc1nc(-c2ccccc2)nc(-c2ccccc2)c1C#N	-28.2%
CCN(CC)c1ccc(Nc2nc(N3CCOCC3)c3ccccc3n2)cc1	-22.3%
CCCS(=O)(=O)N1CCn2c(nc3ccccc32)C1	-9.8%
CCCCOc1ccc(C(=O)Nc2ccc(N3CCN(C(C)=O)CC3)cc2)cc1	-22.6%
CCC(CC)c1nnc(NC(=O)c2cc([N+](=O)[O-])ccc2N2CCCCC2)s1	-20.3%
N#Cc1ccc(-c2ccccc2)nc1SCC(=O)c1cc2ccccc2oc1=O	-25.9%
COc1ccc(Br)cc1CN(C)CC(=O)Nc1cc(Cl)cc(Cl)c1	-12.1%
O=C(NCCN1CCCCC1)c1ccco1	0.5%
SMILES	HPGD inh
CSc1ccccc1NC(=O)C1CC(c2ccccc2O)=NO1 (configuration not stated)	?
COc1ccccc1-n1cnnc1SCC(=O)NCc1cccs1	-22.0%
COc1cc(C2C(N3C(=O)c4ccccc4C3=O)C(=O)N2c2cccc(C)c2)cc(OC)c1OC (configuration not stated)	-23.5%
COc1ccc(S(=O)(=O)N(C(=O)c2ccco2)c2cc3sc(=O)oc3c3ccccc23)cc1	?
COc1cccc(/C(O)=C2/C(=O)C(=O)N(Cc3ccco3)C2c2ccncc2)c1 (configuration not stated)	-9.9%
COc1ccc(NC(=O)CN2CCN(S(=O)(=O)c3ccc(F)cc3)CC2)cc1Cl	-2.4%
O=C(Nc1nc2ccccc2[nH]1)c1ccc(F)cc1	-10.3%
CCCc1sc(N2CCCC(C(N)=O)C2)nc1-c1ccccc1 (configuration not stated)	1.5%
COc1ccc2cc3cc(C(=O)NCCN4CCc5ccccc5C4)sc3nc2c1	?
COc1ccccc1N1CCN(S(=O)(=O)c2cn(C)c(=O)n(C)c2=O)CC1	0.5%
Cn1cccc1/C=N/n1c(-c2ccccc2)n[nH]c1=S	14.1µM*
CCN(CC)S(=O)(=O)c1ccc2nc(SC)sc2c1	-5.9%
CCN1C(=O)N[C@@H](c2cccs2)C(C(=O)OC)=C1C	-0.4%
COC(=O)CSc1nc2cc(C)ccc2cc1C#N	-5.5%
Cc1oc2c(c1C(=O)Nc1ccc(C(=O)O)cc1)CCCC2	-8.0%
CCc1nnc(NC(=O)C2c3ccccc3Oc3ccccc32)s1	-6.5%
O=S(=O)(Nc1nc2ccccc2nc1N1CCc2ccccc2C1)c1ccc(Cl)cc1	-18.9%
CC(NC(=O)COc1ccccc1)C(=O)NC1=NCCS1 (configuration not stated)	0.6%
Cc1ccc(-c2csc(NC(=O)C3CC=CCC3C(=O)O)c2C(=O)OC(C)C)cc1 (configuration not stated)	?
CSc1ccc(CNc2ccc(Cl)cc2)cc1	2.2%
CCOC(=O)c1sc2nc(N3CCOCC3)c3c(c2c1N)CCCC3	?
COc1ccc(C(=O)OC2CCN(c3ncc(C(F)(F)F)cc3Cl)CC2)cc1	-16.3%
C=CCN1C(=O)C(CC(=O)Nc2ccccc2)SC1=Nc1ccc(S(N)(=O)=O)cc1 (configuration not stated)	-14.7%
CC1Cc2ccccc2N1C(=O)CSc1nc(-c2ccco2)cc(C(F)(F)F)n1 (configuration not stated)	-4.8%
COC(=O)c1oc2ccccc2c1N	-21.1%

Molecules listed so far that contain bromine (4):
SMILES	HPGD inh
[O-]/[N+](=C\c1ccncc1)c1ccc(Br)cc1	?
N#Cc1c(NC(=O)c2ccc(Cn3cc(Br)cn3)o2)sc2c1CCCCC2	-23.7%
CCCCOC(=O)c1ccc(NC(=S)NC(=O)c2c(Br)c(C)nn2C)cc1	-26.9%
COc1ccc(Br)cc1CN(C)CC(=O)Nc1cc(Cl)cc(Cl)c1	-12.1%

Other records:
SMILES	HPGD inh
O=C(CCCNS(=O)(=O)c1cccc2nsnc12)NCCc1ccccc1	-8.8%
CCCCOc1ccccc1N	3.2%
NCCNCCNCCN	-4.0%&-5.0%
CC(C)C(NC(=O)/C=C/c1ccc(F)cc1)C(C)C	-8.5%
CCOC(=O)c1sc(N(Cc2ccccc2)C(=O)CSc2nnc(C3CC3)n2N)nc1C	20µM*
C=CCn1c(=O)/c(=C/c2ccc(O)cc2)s/c1=C(/C#N)c1nnc2n1CCCCC2	-11.0%
CC(=O)Nc1ccc(S(=O)(=O)NCCc2ccc(F)cc2)cc1	1.4%
O=C(N/N=C\c1ccc(O)c([N+](=O)[O-])c1)c1ccccc1-n1cccc1	-14.0%
COc1ccccc1Nc1nc(N)nc(CN2CCc3ccccc3C2)n1	-17.2%
